# High-throughput results: PubChem, National Center for Advancing Translational Sciences (NCATS)
# gsp agonist: gsp mutant agonism; gsp mutant cells, cAMP HTRF, 30 min; control for the full effect not named in the record; Potency, µM (titrated, usually from 76.9 µM), for inactives: at the highest dose activation (cAMP increase), hits mostly activators; actives 0.13% (n = 340,000); AID 624287; active = well fitted activation curve with a large enough effect; inconclusive = small, poorly fitted or top-dose-only effect, or another doubt; inactive = no such curve, though single readings can be large or run the other way; cell line not stated here;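 further: phosphodiesterase inhibitor Ro 20-1724 added with compounds to block cAMP breakdown; potency means the concentration at half of the fitted maximal effect; nearly all actives have a fitted effect of over 60% in size; about a fifth of the inactives were tested at one dose only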
#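 Cells stably selected in G418 were plated at 2000/well, grown 16-24 hr, then given compounds in DMSO with the PDE inhibitor […] (300 uM solution added) for 30 min at 37C; cAMP was read by HTRF.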
# ClpP mod: qHTS Assay for Activators of ClpP | ATP-dependent Clp protease proteolytic subunit (Bacillus subtilis (strain 168)), P80244 | purified B. subtilis ClpP, FRET peptide cleavage, 20 min | Potency, µM (titrated, usually from 57.5 µM), for the others: at the highest dose activity change, negative = active | actives 1.9% (n = 340,000); active = well fitted falling curve with a large enough effect; inconclusive = small, poorly fitted or top-dose-only effect; inactive = no such curve, though single readings can be large or run the other way; further: potency means the concentration at half of the fitted maximal effect; the source files actives as falling curves though it sought activators and does not explain the sign; nearly all actives have a fitted effect of over 65% in size; many hits overshoot -100%
# Target sequence (P80244 whole entry, looked up): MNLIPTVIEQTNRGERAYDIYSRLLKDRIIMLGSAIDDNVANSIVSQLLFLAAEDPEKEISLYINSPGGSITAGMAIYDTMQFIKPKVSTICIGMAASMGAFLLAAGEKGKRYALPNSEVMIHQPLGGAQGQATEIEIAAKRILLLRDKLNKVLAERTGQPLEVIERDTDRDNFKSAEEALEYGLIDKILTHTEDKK
#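 Purified B. subtilis ClpP, 10 microg/mL final in Tris/HCl pH8 with KCl, BSA, glycerol and Tween-20, cleaved an Abz/nitrotyrosine-quenched decapeptide. Fluorescence (ex 320, em 430) was read at 0 and 20 min at room temperature. Delta was normalized to 5.8 microM ADEP and DMSO/no-enzyme controls.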
# Menin MLL FP FL: displaces fluorescein MLL peptide from human menin; Fluorescence polarization, fluorescein-MLL peptide displacement from menin; FP activity change, % at 61.4 µM; 290,000 tested, under 10 active; AID 1766; inconclusive = falling polarisation curve, or a change in total fluorescence; inactive = total fluorescence flat and polarisation flat or rising; no compound was filed as active; the % refers to the polarisation; negative = inhibition;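 further: % of control where 0% means no effect; inhibitors lower the polarisation; unlabelled MLL peptide was the positive control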
# CtBP-E1A inh: inhibitors of CtBP/E1A interaction. AlphaScreen GST-E1A/His-CtBP binding, 1536-well; stronger effect = lower value; control for the full effect not named in the record. activity change, % (concentration not given with the values). actives 0.49% (n = 340,000); in the data active means activity change below about -65%; inconclusive means about -30% to -65%; inactive means above about -30%; further: on the % scale 0 is the no-effect control and ±100 the full control effect
#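 Steps: dispense buffer (Tris pH 8.0, NaCl 300 mM, TCEP 1 mM, BSA, Tween 20); add 5X protein mix (GST-E1A, His-CtBP, 125 nM each); pin 23 nL compound; 2 h at 37 °C, dark; add 5X beads (50 ug/mL); 1 h; read.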
# Sfp PPTase inh: Sfp phosphopantetheinyl transferase inhibition | Biochemical Sfp PPTase activity, qHTS | Potency, µM, without a hit: max response, negative = inhibition, usual class: inhibitors | actives 3.5% (n = 310,000) | AID 1490; active means well fitted inhibition curve with a large enough effect; inconclusive means small, poorly fitted or top-dose-only effect, or another doubt; inactive means no such curve, though single readings can be large or run the other way;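 further: the enzyme is Sfp with the accession as filed and its product quenches rhodamine fluorescence; potency means the concentration at half of the fitted maximal effect; 0% = enzyme reaction without inhibitor and -100% = no enzyme wells; top concentration of the series not given in the record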
#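 Reaction rates are the 30-min fluorescence difference (ex 525, em 598 nm) in wells containing 15 nM Sfp, 5 uM rhodamine-CoA and 12.5 uM BHQ-2-YbbR at pH 7.6 with 10 mM MgCl2.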
# TRPV1 PAM: enhances activation of the human vanilloid receptor TRPV1; AID 540277; Q8NER1; potentiation, % at 8.33 µM; TRPV1-expressing cells, Fluo-8 calcium influx, capsaicin EC20 potentiation; host cell line not named in the record; control for the full effect not named in the record; actives 0.02% (n = 320,000); active means potentiation above 80%; inconclusive means 30% to 80%; inactive means below 30%; further: 0% is about no effect
# Target sequence (Q8NER1 whole entry, looked up): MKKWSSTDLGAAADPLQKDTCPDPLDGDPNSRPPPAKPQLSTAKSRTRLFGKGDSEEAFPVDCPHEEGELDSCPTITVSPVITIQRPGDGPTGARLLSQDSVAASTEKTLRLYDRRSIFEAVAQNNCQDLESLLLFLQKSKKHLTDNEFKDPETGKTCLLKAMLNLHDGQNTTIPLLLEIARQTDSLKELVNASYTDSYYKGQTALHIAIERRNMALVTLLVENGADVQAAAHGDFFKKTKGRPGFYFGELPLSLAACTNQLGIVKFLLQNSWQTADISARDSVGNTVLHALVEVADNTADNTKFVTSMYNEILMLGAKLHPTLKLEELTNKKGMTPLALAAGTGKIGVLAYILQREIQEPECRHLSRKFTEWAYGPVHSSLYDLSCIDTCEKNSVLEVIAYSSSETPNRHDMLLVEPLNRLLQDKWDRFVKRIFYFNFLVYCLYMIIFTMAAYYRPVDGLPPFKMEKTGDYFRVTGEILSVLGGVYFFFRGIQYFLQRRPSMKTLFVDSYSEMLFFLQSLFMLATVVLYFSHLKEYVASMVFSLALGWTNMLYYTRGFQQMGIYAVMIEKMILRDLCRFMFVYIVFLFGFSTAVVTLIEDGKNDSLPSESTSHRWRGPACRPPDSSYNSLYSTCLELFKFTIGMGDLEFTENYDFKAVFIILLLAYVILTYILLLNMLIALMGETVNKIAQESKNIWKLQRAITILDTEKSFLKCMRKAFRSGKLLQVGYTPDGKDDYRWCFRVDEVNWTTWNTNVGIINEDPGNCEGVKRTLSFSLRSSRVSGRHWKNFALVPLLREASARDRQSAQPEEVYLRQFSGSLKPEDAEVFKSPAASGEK
#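 Cells expressing TRPV1 were dye-loaded with Fluo-8 and read kinetically: 10 s baseline, 3 min after compound (agonist portion), then 2 min after EC20 capsaicin (allosteric enhancer portion). Calcium-bound dye fluorescence at 480/520 nm.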
# gsp antagonist: antagonists of gsp mutant (McCune-Albright syndrome); gsp-mutant cells, cAMP HTRF, 30 min; control for the full effect not named in the record; Potency, µM (highest dose often 76.9 µM), without a hit: at the highest dose activity change, negative = inhibition, hits mostly inhibitors; actives 0.4% (n = 340,000); AID 624288; active = falling curve of any shape with a large fitted effect; inconclusive = falling curve, mostly with a smaller effect; inactive = flat or rising curve; cell line not stated here;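 further: intracellular cAMP measured with PDE inhibitor Ro 20-1724 present during compound exposure; potency means the concentration at half of the fitted maximal effect; on the % scale 0 is the no-effect control and ±100 the full control effect; nearly all actives have a fitted effect of over 65% in size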
#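 Cells in G418 medium, seeded 16-24 h, 37C; buffer exchange to DPBS + 1 mM CaCl2, 0.5 mM MgCl2, 0.05% BSA; cpds in DMSO + […] (300 uM stock), 30 min 37C; HTRF cAMP detection.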
# The depositor's hits bear a star; ? = inconclusive; nt = not tested or not shown; [ ] = another dose, or the depositor's remark.
smiles	gsp agonist	ClpP mod	Menin MLL FP FL	CtBP-E1A inh	Sfp PPTase inh	TRPV1 PAM	gsp antagonist
CCc1ccc(NC2=CC(=O)C(=O)c3ccccc32)cc1	-8%[15.4 µM]	-3.8%	nt	-4	nt	0	?
COc1cc(CNCCCN2CCOCC2)cc(Cl)c1OCC(=O)NC(C)(C)C	-10%	nt	1.0	0	-15%	0	10%
CS(=O)(=O)c1ccc(-c2nnc(NC(=O)c3ccco3)o2)cc1	21%[15.4 µM]	nt	nt	-6	nt	-8	0%
CC(=O)C1=C(C)OC(N)=C(C#N)C1c1ccco1 (stereo not drawn)	?	-13%	?	-8	-16%	-6	0%
CCOC(=O)N1CCC(=NNc2ccc(S(N)(=O)=O)cc2[N+](=O)[O-])CC1	?	nt	-0.8	5	-1%	-9	-10%
CCOC(=O)CCCCC(=O)c1[nH]c(=O)[nH]c1CSc1nnc2c3ccccc3n(C(C)C)c2n1	?	-0.7%	nt	-20	2%	-9	12%
COC(=O)c1cc(OC)c(OC)cc1NC(=O)c1cccc(OC)c1OC	?	nt	0.4	-4	21%	-28	7%
COc1ccccc1CN1CC(C(=O)N(C)CCCn2nc(C)cc2C)CCC1=O (stereo not drawn)	29%	4.1%	nt	-1	13%	3	9%
CC1CCc2c(nc3nc[nH]n3c2=O)C1 (stereo not drawn)	6%	-1.8%	0.7	0	16%	2	5%
O=C(NCC(F)(F)F)c1ccc(S(=O)(=O)NCCc2ccc3c(c2)OCCO3)cc1	?	1.6%	nt	0	nt	nt	nt
S=C(NC1CCCC1)N1CCN(c2ccccn2)CC1	-49%[inhibitor]	?	2.9	-2	20%	-7	3%
Cc1ccc(COc2ccc3c(c2)OCO3)cc1	4%[15.4 µM]	nt	2.5	-20	6%	3	4%
CC(C)(C)c1ccc(C(=O)/C=C2\NC(=O)CS2)cc1	-11%	-4.2%	1.5	5	2%	-8	-21%
Nn1c(SCC(=O)NCCCc2ccccc2)nnc1-c1cccnc1	-3%[15.4 µM]	nt	-3.3	3	-1%	5	6%
CCOc1cc(C(=O)NN=C2CCCC2)cc(OCC)c1OCC	26%	0.3%	-4.9	6	15%	11	29%

# Fetched by structure from the list above (two):
smiles	gsp agonist	ClpP mod	Menin MLL FP FL	CtBP-E1A inh	Sfp PPTase inh	TRPV1 PAM	gsp antagonist
COC(=O)c1cc(OC)c(OC)cc1NC(=O)c1cccc(OC)c1OC	?	nt	0.4	-4	21%	-28	7%
Nn1c(SCC(=O)NCCCc2ccccc2)nnc1-c1cccnc1	-3%[15.4 µM]	nt	-3.3	3	-1%	5	6%

# The listing continues:
smiles	gsp agonist	ClpP mod	Menin MLL FP FL	CtBP-E1A inh	Sfp PPTase inh	TRPV1 PAM	gsp antagonist
CCN(C[C@H]1N[C@@](Cc2ccccc2)(C(=O)OC)[C@H]2C(=O)N(Cc3ccccc3)C(=O)[C@@H]12)S(=O)(=O)c1ccc(C(C)(C)C)cc1	nt	-1.7%	nt	3	nt	nt	-7%
CN1C(=O)S/C(=C/c2ccc(OCc3cccc(C(=O)O)c3)cc2)C1=O	-10%[15.4 µM]	-2.5%	1.4	15	29%	10	-6%
O=c1c2c(nc3n1CCCCC3)-c1ccccc1CC21CCCC1	-37%[inhibitor]	-5.7%	6.5	-23	1%	-8	-17%
CCOC(=O)c1cnc(-n2nc(C)cc2C)nc1Nc1cccc(C(C)=O)c1	4%	-1.4%	nt	8	nt	nt	12%
CCCc1cc(=O)[nH]c(SCC(=O)N2CCCc3ccccc32)n1	5%[15.4 µM]	1.2%	2.0	4	2%	-3	-10%
N#CC(C#N)=Cc1c(N2CCN(c3ccccc3)CC2)nc2ccccn2c1=O	?	0.1%	4.8	-7	8%	-12	-12%
c1ccc2c(c1)nc(N1CCOCC1)c1ccccc12	?	-7.8%	-1.5	0	7%	8	-10%
CCCC1(C(=O)OCC)NC(c2ccc(O)cc2)C2C(=O)N(c3cccc(C(C)=O)c3)C(=O)C21 (stereo not drawn)	-10%	nt	2.3	-2	11%	-5	7%
CCCCCc1nnc(NC(=O)C2=COCCO2)s1	-7%[15.4 µM]	-1.8%	nt	0	nt	-16	7%
COc1cccc(NC(=O)Nc2nnc(N3CCCCC3C)s2)c1 (stereo not drawn)	-5%	-2.1%	-0.7	-24	14%	7	-8%
Cc1cc(-c2ccc(C(C)C)c(S(=O)(=O)N3CC(=O)Nc4ccccc43)c2)on1	-44%[inhibitor]	-5.5%	3.7	-14	-2%	-2	-7%
Cc1cc2c(c(C#N)c1C)NC=NC2C (stereo not drawn)	0%	4.0%	nt	2	nt	nt	nt
CC(=O)c1ccc(CCCc2ccc(C(C)=O)cc2)cc1	6%	nt	nt	31	nt	nt	1%
CCOC(=O)N1CCN(C(=O)Cc2cccs2)CC1	-29%	-2.2%	-0.1	2	3%	-3	0%
Cc1c(C(=O)N(C)C(C)c2ccccn2)oc2c(F)cccc12 (stereo not drawn)	0%	0.6%	nt	4	0%	-25	7%
CC(Oc1ccc(Cl)cc1)c1ccc(C#N)c(=O)[nH]1 (stereo not drawn)	-54%[inhibitor]	4.0%	0.4	nt	18%	10	-5%
Cc1cc(NC(=O)c2ccccc2NS(=O)(=O)c2c(C)c(C)cc(C)c2C)no1	-37%	28µM*	-0.3	8	-2%	1	0%
Cc1ccc(C(=O)N2CCC(C(=O)c3ccc(F)cc3)CC2)cc1	-32%[inhibitor]	-1.2%	nt	nt	nt	nt	-4%
CN1C(=S)SC(C)(C)C1/[N+]([O-])=C/c1cccnc1 (stereo not drawn)	-6%	-1.4%	-0.1	3	15%	12	0%
CC(C)C(=O)Nc1cccc(-c2cn3ccccc3n2)c1	3%	-18%	3.2	1	10%	1	1%
Cc1sc(NC(=O)C2C3CCC(O3)C2C(=O)O)nc1-c1ccc(CC(C)C)cc1 (stereo not drawn)	4%	-1.8%	nt	-2	0%	-12	3%
Cc1ccc(N/C(C(Cl)=C(Cl)Cl)=C(/Cl)[N+](=O)[O-])c(C)c1	-55%[inhibitor]	1.9%	1.1	nt	?	-5	-2%
COc1ccc(C(=O)NCC(=O)N=Nc2c(O)n(Cc3ccccc3)c3ccccc23)cc1OC	10%[15.4 µM]	nt	7.4	-8	14%	4	11µM*
Cc1ccc(O)c(N=NC2=C(O)CC(C)(C)CC2=O)c1	-36%[inhibitor]	0.6%	33[activator]	-4	-3%	-1	-26%
CN(C)c1ccc(N=Nc2nc3ccccc3n2C)cc1	1%	1.9%	-0.1	?	-17%	-10	?
O=c1[nH]c(SCc2cccc(Cl)c2)nc2c1CCCC2	-15%	1.9%	0.2	4	21%	1	-10%
O=c1[nH]c(C2CCCN(S(=O)(=O)c3ccccc3F)C2)nc2c1nnn2Cc1ccccc1Cl (stereo not drawn)	13%	nt	3.4	14	-16%	4	-16%
CCOC(=O)Nc1oc2ccccc2c(=O)c1CN1CCOCC1	-9%	?	-1.4	-10	-1%	-7	-24%
Cc1nc2cnccc2n1C	26%	nt	-1.4	1	8%	6	-1%
COc1ccc(Nc2nc3ccccc3nc2NS(=O)(=O)c2ccc(NC(C)=O)cc2)cc1	7%[15.4 µM]	nt	-1.7	-1	13%	7	-21%
Cn1c(=O)c2[nH]c(CN3CCN(Cc4ccccc4)CC3)nc2n(C)c1=O	36%	0.3%	4.4	-6	-6%	-1	6%
O=C(COc1cccnc1[N+](=O)[O-])N1CCC(Cc2ccccc2)CC1	17%	nt	nt	1	nt	nt	1%
COc1ccc(NC2=C(C(C)=O)C(c3ccc(OC)c(OC)c3)C(C(C)=O)C(C)(O)C2)cc1 (stereo not drawn)	?	-0.5%	0.3	-7	5%	10	4%
Cc1ccc2nc(Cl)c3nnnn3c2c1	-17%[15.4 µM]	nt	5.0	0	-13%	?	-12%
Cc1ccc(C)c(S(=O)(=O)N2CCN(C(C(=O)Nc3ccc(F)cc3)c3ccccc3)CC2)c1 (stereo not drawn)	-28%	-2.5%	0.4	-12	10%	0	3%
O=C(c1ccc2[nH]c(=O)c(=O)[nH]c2c1)N1CCN(Cc2ccccc2)CC1	?	3.6%	-4.4	-3	24%	-1	2%
CCNC(=O)C1CCCc2c1[nH]c1ccc(Cl)cc21 (stereo not drawn)	-14%[15.4 µM]	nt	-8.3	15	0%	-3	3%
Cc1cccc(CN2CCCC(C(=O)N3CCc4ccccc4C3)C2)c1 (stereo not drawn)	12%	-3.2%	-9.7	-6	-19%	-22	13%
Cc1nn(CC(=O)Nc2c(F)c(F)cc(F)c2F)c(=O)c2cccn12	-25%	-0.9%	0.1	1	5%	3	8%
O=C(Cc1ccc([N+](=O)[O-])cc1)Nc1cccc(C(=O)N2CCCCC2)c1	-15%	-0.5%	nt	-1	nt	nt	-13%
Cc1cc(C)c(C#N)c(=N)o1	-68%[inhibitor]	2.8µM*	-4.7	0	14µM*	-17	10%
Cc1cccc(C)c1NC(=O)CSC(=S)N1CCCC1	-15%	nt	1.3	9	-5%	-9	6%
CCOC(=O)N1CCC(N2CCN(S(=O)(=O)c3ccc(C)cc3)CC2)CC1	-14%	1.7%	2.2	-1	-30%	-1	-9%
CCOc1ccc(CCNC(=O)CSc2n[nH]c(N)n2)cc1OCC	-1%	-2.5%	nt	0	?	10	9%
O=C(N/N=C/c1ccc(O)cc1)c1cc(C2CC2)[nH]n1	15%	-2.5%	nt	-6	10%	20	-4%
COc1ccc(Cl)cc1NC(=O)C1Cc2cc(S(=O)(=O)N3CCCC3)ccc2N1C(C)=O (stereo not drawn)	-18%	-3.8%	nt	-7	3%	-1	-14%
COC(=O)CCSCC(=O)Nc1ccc(C)c(S(=O)(=O)N2CCCCC2)c1	22%	0.9%	0.4	3	12%	-5	-12%
